Bioassay records (PubChem BioAssay)
Cruzain inh Det = inhibitors of Trypanosoma cruzi cruzain with detergent; purified cruzain, Z-FR-AMC fluorescence, 0.01% Triton; actives 0.43% (n = 200,000); Potency, µM, inactives show max response, negative = inhibition, actives largely listed as inhibitors; AID 1478; P25779;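 also: plate controls were neutral wells for no effect and buffer without enzyme for full effect; nearly all actives have a fitted effect of over 40% in size; top concentration of the series not given in the record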
Target sequence (P25779 123-467 limits assumed): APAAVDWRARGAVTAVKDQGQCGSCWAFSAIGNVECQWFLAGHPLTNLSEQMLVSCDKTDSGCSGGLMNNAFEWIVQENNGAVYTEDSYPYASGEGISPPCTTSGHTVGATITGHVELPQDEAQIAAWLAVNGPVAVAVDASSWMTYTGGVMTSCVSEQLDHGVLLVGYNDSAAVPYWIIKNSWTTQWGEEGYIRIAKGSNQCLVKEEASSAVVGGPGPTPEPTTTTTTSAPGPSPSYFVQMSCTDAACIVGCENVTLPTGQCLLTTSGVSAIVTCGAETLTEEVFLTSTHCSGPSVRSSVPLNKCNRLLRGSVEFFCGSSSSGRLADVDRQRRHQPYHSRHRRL
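Steps: dispense cruzain (1.5 nM final) in acetate buffer pH 5.5 with DTT and 0.01% Triton X-100; pin-transfer compounds; incubate 15 min RT; add Z-FR-AMC (2 uM final); read fluorescence every 30 s, using the 60 s intensity change.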
Cruzain inh noDet = cruzain (T. cruzi) inhibition without detergent; P25779; purified cruzain, Z-FR-AMC fluorescence, no detergent; Potency, µM, for inactives: max response, negative = inhibition, most hits filed as inhibitors; AID 1476; actives 2.3% (n = 200,000);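 also: plate controls were enzyme without inhibitor for no effect and buffer without enzyme for full effect; nearly all actives have a fitted effect of over 40% in size; top concentration of the series not given in the record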
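Detergent-free condition (0.00005% Triton X-100) in acetate buffer pH 5.5 with DTT. 1.5 nM enzyme and compound were pre-mixed 15 min, then 2 uM Z-FR-AMC substrate added; reaction progress from fluorescence change between first and third reads (60 s).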
2A StopGo = FMDV 2A StopGo reporter, luciferase signal; actives 1.2% (n = 410,000); human cells with a luciferase reporter of 2A StopGo recoding; control for the full effect not named in the record; Potency, µM (doses to about 57.9 µM), inactives show at the highest dose signal change, negative = less light; active = well fitted falling curve with a large enough effect; inconclusive = small, poorly fitted or top-dose-only effect; inactive = no such curve, though single readings can be large or run the other way; tested in HEK293T cells; also: nearly all actives have a fitted effect of over 45% in size; luciferase light after 4 h
* marks the source's active call; other numbers are inactive results; ? = inconclusive; & = joins results of further samples; [ ] = another dose, or the depositor's remark. Unless noted, calls follow the shape of the dose curve; as a rule, active = well fitted curve in the direction sought with a large enough effect; inconclusive = small, poorly fitted or top-dose-only effect, or another doubt; inactive = no such curve, though single readings can be large; an effect the other way counts as inactive or inconclusive. Unless noted, % is scaled to controls: 0 for no effect and ±100 for the full control effect; potency is read from the fitted curve at half-maximal effect. An excerpt. The share of hits here may be higher or lower than overall.

Second line of a record – Cruzain inh Det	Cruzain inh noDet	2A StopGo
- CC(C)(O)CCC(O)[C@@](C)(O)C1CC[C@]2(O)C3=CC(=O)C4CC(O)C(O)C[C@]4(C)C3CC[C@]12C (stereo partly drawn)
→ -0.2%	-5%	19%
- NC(C(=O)NC1C(=O)N2C(C(=O)O)=C(Cl)CSC12)c1ccccc1 (stereo not drawn)
→ 2.2%	-1%	-28%
- COc1cccc(Nc2ncc3nc(C)c(=O)n(C)c3n2)c1
→ 4.0%	-17%	?
- COc1cccc(Cn2c(=O)c(-c3ccc(F)cc3)nc3cncnc32)c1
→ -2.9%	-3%	-11%
- CN(C)C(=O)c1ccc(-c2nccc(NCc3ccccc3)n2)cc1
→ 3.1%	13%	10%
- Cc1c(C2CCN(CCc3ccccc3)CC2)noc1-c1ccc(Cl)cc1
→ -5.0%	0%	-12%&-6%
- O=C(O)c1ccc(S(=O)(=O)N(Cl)Cl)cc1
→ 5.0%&-0.7%	-4%&1%	6%
- CN(C)C(=O)c1ccc(-c2ccc3ncnc(NCc4cccnc4)c3c2)cc1
→ -3.4%	-4%	-3%
- COc1ccc(-c2nc3cnc(OC)nc3n(C)c2=O)cc1
→ 1.1%	-1%	20%
- CCNc1ncc2nc(C)c(=O)n(C[C@H]3CCCO3)c2n1
→ 20µM*	?	-19%
- O[C@@H](c1ccccc1)C1CCN(CCc2ccccc2)CC1
→ -8.3%	-1%	-3%
- Cc1noc(C)c1-c1ccc2ncnc(N(C)C)c2c1
→ -3.0%	-6%	-6%
- O=C1CC2(CCCC2)CC(=O)N1CCCCNC[C@H]1COc2ccccc2O1
→ -5.4%	12%	-11%
- C[C@@H]1C[C@@H](O)[C@@]2(O)[C@]13CC(=O)OC[C@]2(C)[C@@](C)(O)C(=O)C3
→ 2.7%	0%	0%
- COc1ncc2nc(-c3ccccc3)c(=O)n(C3CC3)c2n1
→ -5.2%	-3%	-19%
- CC1(C)C(=O)CC[C@@]2(C)C1CC(O)[C@@]1(C)C3=CC(=O)OC(c4ccoc4)[C@]3(C)CCC21 (stereo partly drawn)
→ 4.2%	-5%	-21%
- NC(=O)C[C@H](NC(=O)Cc1ccc(O)cc1O)C(=O)O
→ 1.7%	6%	2%&-10%
- Cn1cccc1C(=O)N1CCC2(CC1)CCN(c1ccncc1)CC2
→ 0.9%	-4%	-11%
- N#Cc1cccc(-c2nc3cnc(N4CCOCC4)nc3n(C[C@H]3CCCO3)c2=O)c1
→ 4.5%	10%	-14%
- CS(=O)(=O)N1CCC2(CCCN(Cc3ccccc3)C2)CC1
→ -1.7%	-2%	-14%
- Cc1cccc(CNc2ncncc2-c2ccccc2C(F)(F)F)c1
→ 3.9%	-5%	0%
- N#Cc1cccc(NC(=O)N2CC3(CCN(C(=O)c4cccc(F)c4)CC3)C2)c1
→ 2.6%	0%	0%
- CN1CCN(c2ncc3nc(-c4cc(F)cc(F)c4)c(=O)n(C)c3n2)CC1
→ -7.4%	24%	-8%
- CN1CCN(c2ncc3ncc(=O)n(C4CC4)c3n2)CC1
→ ?	?	-16%
- Cn1c(=O)c(-c2cccc(Cl)c2)nc2cncnc21
→ -11%	-8%	-1%
- CN(C)Cc1ccccc1-c1ccc2ncnc(NC3CCNCC3)c2c1
→ 2.1%	3%	2%
- COc1ccc(-n2c(=O)c(-c3cccs3)nc3cncnc32)cc1
→ 1.1%	-2%	-3%
- NCCCCC(N)C(=O)NC(Cc1ccc(O)cc1)C(=O)NC(CCCCN)C(=O)O (stereo not drawn)
→ 3.7%	-2%	5%
- COC(=O)CC1C(C)(C)C(OC(C)=O)C2[C@H](OC(C)=O)[C@]34O[C@]2(O)[C@]1(C)C3CC[C@]1(C)C4=CC(=O)OC1c1ccoc1 (stereo partly drawn)
→ -8.4%	?	-26%
- CC(=O)/C(=C\c1ccccc1)CC(=O)O
→ 0.4%	-5%	-14%

Following part.
Second line of a record – Cruzain inh Det	Cruzain inh noDet	2A StopGo
- O=C(Nc1cccc(F)c1)N1CCC2(CC1)CCN(C(=O)c1cnccn1)CC2
→ 1.1%	-16%	-15%
- COc1ccccc1-c1cncnc1N1CCN(C)CC1
→ 2.9%	8%	-11%
- Clc1ccccc1-c1nc(NCCN2CCOCC2)c2ccccc2n1
→ -1.1%	-10%	7%
- CN1CC[C@@]2(CCCN(C(=O)c3ccco3)C2)C1
→ 2.1%	4%	-13%
- CCOc1nc2cccc(C(=O)OC(C)OC(=O)OC3CCCCC3)c2n1Cc1ccc(-c2ccccc2-c2nn[nH]n2)cc1 (stereo not drawn)
→ 14µM*	?	-8%
- Cc1noc(C)c1C(=O)N1CCC[C@@]2(CCN(C(=O)Nc3cccc(F)c3)C2)C1
→ -5.0%	-5%	-3%
- O=C1Nc2ccccc2C(=O)N2CCC[C@@H]12
→ 2.2%	-2%	0%
- COC(=O)N1CCC2(CC1)CCN(c1ccccc1)CC2
→ -4.2%	-2%	-16%
- COc1cccc(Cn2c(=O)c(-c3cccs3)nc3cnc(N(C)C)nc32)c1
→ -0.2%	1%	-2%
- COc1ccc(CNc2ccnc(-c3ccc4c(c3)OCO4)n2)c(OC)c1
→ -3.7%	-24%	-18%
- COCCn1c(=O)c(-c2ccc(OC)cc2)nc2cnc(Oc3ccc(OC)cc3)nc21
→ -2.6%	?	-1%
- CC(=O)N1CCC[C@@]2(CCN(Cc3ccccc3)C2)C1
→ 4.1%	-4%	-5%
- COc1ccc(Oc2ncc3nc(-c4ccccc4)c(=O)n(CCC#N)c3n2)cc1
→ -2.3%	-19%	?
- COCCn1c(=O)cnc2cnc(Nc3cccc(OC)c3)nc21
→ 0.0%	-8%	-13%
- c1csc(CNc2ncncc2-c2ccoc2)c1
→ 3.2%	9%	-3%
- COc1cccc(Cn2c(=O)c(C)nc3cnc(Oc4ccccc4)nc32)c1
→ -8.6%	?	-23%
- CC(=O)N(OCc1ccccc1)[C@@H]1c2cc(C#N)ccc2OC(C)(C)[C@H]1O
→ -3.4%	?	19%
- c1ccc(CN2CCC3(CCc4ccccc43)CC2)cc1
→ 0.9%	3%	-14%&-2%
- Cc1noc(C)c1-c1nc(N2CCOCC2)c2ccccc2n1
→ -1.0%	5%	-24%
- Nc1nc2c(ncn2C2CC(O)C(CO)O2)c(=O)[nH]1 (stereo not drawn)
→ 5.4%	-4%	21%
- N#Cc1ccc(CN2CC[C@@]3(CCCN(C(=O)c4ccncc4)C3)C2)cc1
→ 0.8%	2%	-4%
- CCCCC[C@H](O)CC[C@H]1[C@H](O)CC(=O)[C@@H]1CCCCCCC(=O)O
→ 3.1%	-9%	-7%[6.7 µM]
- Cc1nc2cnc(Nc3ccccc3)nc2n(Cc2ccc(F)cc2)c1=O
→ -2.1%	-11%	-3%
- COc1cccc(Nc2ncc3ncc(=O)n(C4CC4)c3n2)c1
→ -3.0%	-17%	16%
- O=C(c1ccco1)N1CCC[C@@]2(CCN(Cc3ccccc3)C2)C1
→ -1.9%	-9%	-4%
- Cc1nc2cncnc2n(-c2ccccc2)c1=O
→ -7.7%	7%	8%
- COc1cccc(-c2cncnc2NC2CCNCC2)c1
→ -3.5%	1%	-17%
- COc1cccc(Cn2c(=O)c(-c3cc(F)cc(F)c3)nc3cnc(N4CCN(C)CC4)nc32)c1
→ 4.3%	-1%	-14%
- CC(C)=CCCC1(C)C=Cc2c(c(C)cc3c2[nH]c2ccccc23)O1 (stereo not drawn)
→ -3.6%	-30%	-14%
- Cc1cccc(CNc2nc(-c3ccc4c(c3)OCO4)nc3ccccc23)c1
→ -9.7%	-15%	?

Other structures:
Second line of a record – Cruzain inh Det	Cruzain inh noDet	2A StopGo
- COc1ccccc1/C=C\C(=O)O
→ 0.0%	-2%	-10%
- c1ccc(N2CC[C@@]3(CCCNC3)C2)nc1
→ -1.4%	14%	-11%
- N#CCCn1c(=O)c(-c2ccccc2)nc2cnc(N3CCOCC3)nc21
→ 2.5%	9%	-2%
- O=C(/C=C(\O)c1ccccc1)c1ccccc1O
→ -5.6%	-15%	49%[activator]
- Cc1cccc(CNc2cc(-c3ccccc3C)ncn2)c1
→ -5.6%	2%	-25%
- CC1(C)CCCC2(C)C3C(O)CC2(C)C(O)C31 (stereo not drawn)
→ 1.8%	-2%	-18%
- CC(Oc1ccc(O)cc1)(P(=O)(O)O)P(=O)(O)O
→ -0.5%	3%	5%
- CNC(C)C1CC[C@H](N)[C@@H](OC2C(N)C[C@H](N)[C@@H](OC3OC[C@](C)(O)C(NC)[C@H]3O)C2O)O1 (stereo partly drawn)
→ 1.8%	-4%	4%
- Nc1ncnc2[nH]c(=O)[nH]c12
→ 4.3%	0%	1%
- Cn1c(=O)c(CCc2ccccc2)nc2cncnc21
→ -2.3%	-9%	9%
- Oc1cccc(O)c1
→ 3.1%&2.5%	7%&1%	-4%
- COc1ccc(CNc2ncncc2-c2ccccc2Cl)c(OC)c1
→ 0.3%	6%	-9%
- COc1cc(/C=C/C(=O)c2c(O)cc(C)oc2=O)ccc1O
→ -4.1%	-11%	-6%
- O=c1c(-c2ccccc2)nc2cnc(N3CCNCC3)nc2n1Cc1ccc(F)cc1
→ -2.8%	9%	-12%
- CCNc1ncc2nc(CCc3ccccc3)c(=O)n(CCOC)c2n1
→ -0.2%	8%	14%
- COc1ccccc1-c1nccc(NCc2cnc(C)cn2)n1
→ -4.3%	-3%	8%
- CCNc1ncc2ncc(=O)n(CCOC)c2n1
→ -18%	-13%	-12%
- COc1ccccc1CNc1cc(-c2ccccc2OC)ncn1
→ -5.4%	2%	?
- CCNc1ncc2nc(-c3ccc(Cl)cc3)c(=O)n(C)c2n1
→ 6.0%	16%	30%[activator]
- COC(=O)N1CCC2(CCCN(C(=O)Nc3ccc(OC)cc3)C2)CC1
→ 9.5%	10%	-9%
- c1cc2c(c(N3CCNCC3)c1)OCCO2
→ 1.1%	-3%	-10%
- CC(C)CN1CC2(CCN(C(=O)c3cnccn3)CC2)C1
→ 0.7%	1%	-8%
- N#Cc1cccc(-c2ccc3ncnc(N4CCNCC4)c3c2)c1
→ 3.4%	-3%	-2%
- CN1CCN(c2ncc3nc(CCc4ccccc4)c(=O)n(Cc4cccs4)c3n2)CC1
→ -8.2%	5%	-10%
- Cc1nc2cnc(N(C)C)nc2n(CCC#N)c1=O
→ -1.0%	4%	6%
- Cc1cnc(CNc2ccnc(-c3ccccc3C(F)(F)F)n2)cn1
→ -0.1%	4%	-11%
- c1ccc(-c2n[nH]c3c2oc2ccccc23)cc1
→ 1.1%	-15%	42%[activator]
- O=C(Nc1cccc(F)c1)N1CCC2(CCNCC2)CC1
→ 1.8%	2%	-11%
- CCOc1ccc2nc3cc(N)ccc3c(N)c2c1
→ -19%	-20%	3%
- CCNc1ncc2nc(C)c(=O)n(-c3ccc(OC)cc3)c2n1
→ -1.2%	-11%	-26%

A second format for some results above:
COc1ccccc1-c1nccc(NCc2cnc(C)cn2)n1
  Cruzain inh Det: -4.3%
  Cruzain inh noDet: -3%
  2A StopGo: 8%

CCNc1ncc2ncc(=O)n(CCOC)c2n1
  Cruzain inh Det: -18%
  Cruzain inh noDet: -13%
  2A StopGo: -12%

COc1ccccc1CNc1cc(-c2ccccc2OC)ncn1
  Cruzain inh Det: -5.4%
  Cruzain inh noDet: 2%
  2A StopGo: ?

Next part
Second line of a record – Cruzain inh Det	Cruzain inh noDet	2A StopGo
- COCC(=O)N1CCC2(CCCN(Cc3cc(C(F)(F)F)cc(C(F)(F)F)c3)C2)CC1
→ 0.6%	18%	-2%
- Cc1ccc(CC2(O)CCN(CCOc3ccc(O)cc3)CC2)cc1
→ 3.7%	-1%	-14%
- Cn1cccc1C(=O)N1CCC[C@@]2(CCN(c3ccccc3)C2)C1
→ -3.4%	?	-18%
- COCC(=O)N1CCC2(CCCN(Cc3nccs3)C2)CC1
→ 2.9%	3%	3%
- COc1cccc(-c2nc(NCc3ccccc3)c3ccccc3n2)c1
→ -1.1%	-11%	-23%
- CC(=O)OC1CC2C(C)(C)C(O)C=C[C@@]2(C)C2CC[C@@]3(C)C(c4ccoc4)OC(=O)C4OC43[C@]12C (stereo partly drawn)
→ 2.7%	?	-6%
- Cc1ccccc1-c1cncnc1N1CCNCC1
→ 1.0%	-1%	-11%
- CN(C)c1ncc2nc(-c3cccc(C#N)c3)c(=O)n(C)c2n1
→ -2.4%	-1%	-9%
- O=C(O)C1Cc2c([nH]c3ccccc23)C(c2coc3ccccc3c2=O)N1 (stereo not drawn)
→ 1.0%	-11%	1%
- C1CC[C@H]([C@@]23C[C@H](C[C@H]4CCCN[C@H]42)[C@@H]2CCCCN2C3)NC1
→ 2.6%	1%	-4%
